Vaccinia pol inh – vaccinia E9 polymerase processive synthesis inhibitors, primary screen, biochemical, absorbance; Vaccinia virus DNA polymerase (E9) processive complex; in vitro processive DNA synthesis, absorbance read-out; active compounds read low; some inactives read as strong as hits; normalized absorbance, % (concentration not given with the values); 0.94% of 46,000 active; AID 493162, 2011;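 active = replicate mean up to 90% and picked by the depositor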;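 also: 100% = median of the test wells of a plate; 100 nL library stock went into each well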
* marks the source's active call; other numbers are inactive results. The list is partial; the hit share may differ from the screen's.

Start of the data: the first 19 entries, ahead of the listing:
SMILES	Vaccinia pol inh
O=C1NC(=Nc2ccccc2)S/C1=C/c1ccc(Cl)cc1	104
O=C(NC(Cc1nc2ccccc2n1CCO)c1ccccc1)c1ccccc1 (stereo unspecified)	107
CCOc1cc(C(=O)O)ccc1OCC(C)C	100
CCCC12CN3CC(CCC)(CN(C1)C3C(O)C(O)C(O)CO)C2=O (stereo unspecified)	97
O=C(CCOc1ccccc1)Nc1nc2ccc(Br)cc2s1	97
CC(C(=O)O)N1C(=O)/C(=C/c2ccc(Cl)cc2)SC1=S (stereo unspecified)	100
CCc1ccc(Nc2cc(C(=O)NCc3cccs3)c3ccccc3n2)cc1	99
O=C(CCNc1n[nH]c(=O)[nH]c1=O)N1CCOCC1	107
COC(=O)c1cnc(NN2C(=O)C=C(C)C2=O)nc1C(F)(F)F	106
COc1ccccc1C(=O)NCC(c1cccnc1)N(C)C (stereo unspecified)	100
CC(C)(C)OC(=O)C(C)(C)S(=O)(=O)c1ccc(C(F)(F)F)cn1	102
O=C(C1CC1)N1CCc2cc(S(=O)(=O)Nc3cccc(F)c3)ccc21	96
O=S(=O)(c1ccccc1)N1CCCN(S(=O)(=O)c2ccccc2)CC1	102
CC1CCN(C(=O)COC(=O)c2ccc(C#N)cc2)CC1	103
COC(=O)Cc1c(C)c2ccc3c(c2oc1=O)CN(Cc1cccc(OC)c1)CO3	93
CSc1nnc(C)c(=O)[nH]1	101
COc1ccc(/C(C)=N/N2C(=O)c3ccccc3NC2c2ccccc2O)cc1 (stereo unspecified)	102
O=C(NC1CCCC1)C(Sc1ccccc1)c1ccccc1 (stereo unspecified)	99
CCc1ccc(NS(=O)(=O)c2c(C)[nH]c(=O)[nH]c2=O)cc1	101

All compounds of this part, previewed entries included:
SMILES	Vaccinia pol inh
O=C1NC(=Nc2ccccc2)S/C1=C/c1ccc(Cl)cc1	104
O=C(NC(Cc1nc2ccccc2n1CCO)c1ccccc1)c1ccccc1 (stereo unspecified)	107
CCOc1cc(C(=O)O)ccc1OCC(C)C	100
CCCC12CN3CC(CCC)(CN(C1)C3C(O)C(O)C(O)CO)C2=O (stereo unspecified)	97
O=C(CCOc1ccccc1)Nc1nc2ccc(Br)cc2s1	97
CC(C(=O)O)N1C(=O)/C(=C/c2ccc(Cl)cc2)SC1=S (stereo unspecified)	100
CCc1ccc(Nc2cc(C(=O)NCc3cccs3)c3ccccc3n2)cc1	99
O=C(CCNc1n[nH]c(=O)[nH]c1=O)N1CCOCC1	107
COC(=O)c1cnc(NN2C(=O)C=C(C)C2=O)nc1C(F)(F)F	106
COc1ccccc1C(=O)NCC(c1cccnc1)N(C)C (stereo unspecified)	100
CC(C)(C)OC(=O)C(C)(C)S(=O)(=O)c1ccc(C(F)(F)F)cn1	102
O=C(C1CC1)N1CCc2cc(S(=O)(=O)Nc3cccc(F)c3)ccc21	96
O=S(=O)(c1ccccc1)N1CCCN(S(=O)(=O)c2ccccc2)CC1	102
CC1CCN(C(=O)COC(=O)c2ccc(C#N)cc2)CC1	103
COC(=O)Cc1c(C)c2ccc3c(c2oc1=O)CN(Cc1cccc(OC)c1)CO3	93
CSc1nnc(C)c(=O)[nH]1	101
COc1ccc(/C(C)=N/N2C(=O)c3ccccc3NC2c2ccccc2O)cc1 (stereo unspecified)	102
O=C(NC1CCCC1)C(Sc1ccccc1)c1ccccc1 (stereo unspecified)	99
CCc1ccc(NS(=O)(=O)c2c(C)[nH]c(=O)[nH]c2=O)cc1	101
COC(=O)/C=C/c1ccc(C(=O)NCC(=O)N[C@@H](CCC(=O)OC)C(=O)N[C@@H](CC(C)C)C(N)=O)cc1	102
CCc1nnc(NC(=O)c2sc3nc4c(cc3c2N)CCCC4)s1	92
CN1C(=O)C(O)(CC(=O)c2ccccc2)c2ccccc21 (stereo unspecified)	102
O=C(Nc1nc2c(s1)CN(Cc1ccccc1)CC2)C1CCCCC1	100
CCn1cc(C(=O)NCc2ccccc2)c(=O)c2cc(S(=O)(=O)N3CCCC3)ccc21	96
COc1cc2c(cc1OC)C(c1ccccc1NC(=O)c1cccc(Cl)c1)=NCC2	97

Further compounds
SMILES	Vaccinia pol inh
Cc1sc2ncn(CC(=O)NC3CCCC(C)C3C)c(=O)c2c1S(=O)(=O)N1CCC(C)CC1 (stereo unspecified)	96
CC(C)CCNC(=O)Cn1c(SCc2c(F)cccc2Cl)nc2ccncc21	102
Cc1cccc(OCCn2cnc3ccccc32)c1	70
Clc1ccc(OCCn2cnc3ccccc32)cc1	86
CC1CCCCN1C(=S)NCc1ccccc1 (stereo unspecified)	100
N/C(=N\c1nc(-c2cccs2)cc(C(F)(F)F)n1)Nc1cccc(Cl)c1	100
Cn1nccc1-c1cc(F)cc(F)c1O	92
Cc1nc2ccccc2c2c1C(=O)CC(c1ccc(F)cc1)=N2	106
COCCOC(=O)C1=C(C)NC(C)=C(C(=O)OC(C)C)C1c1cccc([N+](=O)[O-])c1 (stereo unspecified)	99
O=C1NC(=O)N(c2ccccc2)C(=O)/C1=C/c1ccco1	100
Oc1ccccc1-c1nc(-c2ccccc2)no1	100
CC(=O)O[C@@H]1[C@@H](OC(C)=O)[C@@H]2OC[C@@H](O2)[C@H]1OC(C)=O	110
O=S(=O)(c1ccccc1)N1CCC(O)C2CCCCC21 (stereo unspecified)	100
CCC(C)[C@@H](C(=O)NCc1ccc(F)cc1)N1Cc2ccccc2C1=O (stereo partly specified)	98
COC(=O)C1=CN(C(CC(C)C)C(=O)OC)C=C(C(=O)OC)C1c1ccc(Br)cc1 (stereo unspecified)	98
CC1CCN(Cc2cc(Cl)c(O)c(Cl)c2)CC1	120
Cc1ccccc1NC(=O)Cn1ncc2ccccc21	94
O=c1cc[nH]c(=S)[nH]1	98
CCc1ccc(CNC(=O)CCc2cn(Cc3ccccc3)c3ccccc23)cc1	93
CCNC(=O)C1CC(=O)N(c2ccc(C)cc2)C1 (stereo unspecified)	100
CCC(=O)NCc1ccc2[nH]c(C)cc2c1	99
c1ccc(CSC2=NCN(Cc3ccccc3)CN2)cc1	95
CCOC(=O)c1csc(NC(=O)COc2ccc(Cl)cc2Cl)n1	86
O=C(NC(=O)c1ccccc1F)OCc1ccc(Cl)cc1Cl	78
CC(c1ccccc1)n1c(CCc2ccc(O)cc2)n[nH]c1=S (stereo unspecified)	95

Sorted by molecular weight (smallest number first): 3 of the compounds above.
SMILES	Vaccinia pol inh
CN1C(=O)C(O)(CC(=O)c2ccccc2)c2ccccc21 (stereo unspecified)	102
CCCC12CN3CC(CCC)(CN(C1)C3C(O)C(O)C(O)CO)C2=O (stereo unspecified)	97
O=S(=O)(c1ccccc1)N1CCCN(S(=O)(=O)c2ccccc2)CC1	102

The list goes on.
SMILES	Vaccinia pol inh
CCOC(=O)c1oc2ccccc2c1NC(C)=O	100
CCC(C)NC(=O)CSc1nc2n[nH]c(C)c2c(=N)n1-c1ccc(Br)cc1 (stereo unspecified)	105
Cc1ccccc1/C=C1\Sc2ccccc2N(CC(=O)NC(C)c2ccccc2)C1=O (stereo unspecified)	101
Cc1nc2ccccc2cc1C(=O)NCc1ccccn1	109
COc1ccc(C(=O)CCN2CCOCC2)cc1	95
CCOC(=O)c1ccccc1NC(=O)N1CCC(CN2CCCC2)CC1	102
Cc1cccc(-n2c(CSc3nc4ccccc4[nH]3)nc3ccccc3c2=O)c1C	100
O=C1c2ccccc2C(=O)C1c1ccccc1	101
CC(C)c1nnc(NC(=O)C2c3ccccc3Oc3ccccc32)s1	100
Cc1nc2cc(N=Cc3ccc(Cl)cc3)ccc2n1Cc1ccccc1	100
COc1cccc(C(=O)NC(NCC2CCCO2)(C(F)(F)F)C(F)(F)F)c1 (stereo unspecified)	98
COc1ccc(CCNS(=O)(=O)c2cccc3cccnc23)cc1OC	100
O=C(COC(=O)CCc1ccccc1)NC12CC3CC(CC(C3)C1)C2	102
O=C(CCS(=O)(=O)c1cccc2nonc12)N1CCCCC1	97
Cc1cc(C)c2c(N)c(C(=O)NCC3CCCCC3)sc2n1	96
CC(C)c1cc(NC2CCCCC2)n2c(nc3ccccc32)c1C#N	100
CCNC(=O)Cn1c(=O)c(=O)n(Cc2ccccc2)c2ccc(Cl)cc21	99
c1cc(-c2nc3ccccc3s2)nc(-c2nc3ccccc3s2)c1	100
CC(C)CCN(C)C1CCN(S(=O)(=O)c2cccc(Cl)c2)CC1	93
O=C(CC(SCc1ccco1)c1ccc(F)cc1)c1ccncc1 (stereo unspecified)	98
Cc1csc2ncc(C(=O)N3c4ccccc4CC3C)c(=O)n12 (stereo unspecified)	100
Cc1ccc(CNC(=S)NN(C)C)cc1	92
O=C(COC(=O)C12CC3CC(CC(C3)C1)C2)c1ccc(Br)cc1	99
Cc1ccc(OCc2ccc(C(=O)Nc3nccs3)o2)cc1C	100
Cc1ccc(-c2csc(/C(C#N)=C\Nc3ccc(S(N)(=O)=O)cc3)n2)cc1	99

The results go on:
SMILES	Vaccinia pol inh
O=C(O)CNCc1c(Cl)cccc1Cl	105
CC(CO)NCC12CC3CC(CC(C3)C1)C2 (stereo unspecified)	102
Cc1ccc2cc3cc(C(=O)NCCCN4CCCC4)oc3nc2c1	66
Nc1oc2c(CN3CCCCCC3)c(O)ccc2c(=O)c1-c1nc2ccccc2s1	94
Cc1nn(-c2ccccc2)c(Cl)c1C(=O)N1CCN(C)CC1	106
CN(C)CCN(C(=O)CN1C(=O)c2ccccc2C1=O)c1nc2c(F)cc(F)cc2s1	100
CC(C)OC(=O)CN1CCN(S(=O)(=O)c2ccc(C(C)C)cc2)CC1	96
N#Cc1nn(-c2ccccc2)c(=O)[nH]c1=O	101
CCOC(=O)c1cccnc1SCC(=O)NC(C)CC (stereo unspecified)	106
O=C(CSc1c[nH]c2ccccc12)Nc1ccccc1	91
CCN(C(=O)c1sc2ccccc2c1Cl)C(Cc1ccccc1)c1ccc(OC)cc1 (stereo unspecified)	114
CCNC(=S)NCC1CC1	100
O=C1CCNc2ccc(C(F)(F)F)cc2N1	93
O=c1c2ccccc2nc(-c2cccs2)n1NCc1ccccc1F	100
CC(C)c1nnc(NC(=O)/C=C/c2ccc3c(c2)OCO3)s1	99
Cc1cccc(NC(=O)CN(C)S(=O)(=O)c2cccs2)c1C	78
CC(=O)N(CCC(Cc1ccccc1)c1ccc2c(c1)OCO2)Cc1ccc2c(c1)OCO2 (stereo unspecified)	98
O=C(CSc1nc2cc(Cl)ccc2s1)NC1CCCC1	107
CCOc1ccc(OCC)c(S(=O)(=O)N2CCCCC2)c1	87
Oc1cccc(NC(=S)Nc2cccnc2)c1	92
CC(C)(C)C(=O)C(Oc1ccc(Cl)cc1)n1cnnc1 (stereo unspecified)	98
COc1ccc(-c2cn(-c3ccc(C)cc3C)c(=S)[nH]2)cc1OC	102
C=CCN(CC=C)C(=O)c1cccs1	100
CC(C)C(=O)N1CCN(c2ccccc2N)CC1	75
O=C(SCc1cccs1)c1csc(C2COc3ccccc3O2)n1 (stereo unspecified)	72

The list goes on.
SMILES	Vaccinia pol inh
COc1ccccc1N1CCSC1C(N)=O (stereo unspecified)	100
O=C1CCCC2=C1C(c1ccccc1C(F)(F)F)c1c(ccc3ncccc13)N2 (stereo unspecified)	99
CCN1C/C(=C\c2ccccc2)C(=O)/C(=C/c2ccccc2)C1	108
O=C(Nc1ncn[nH]1)Nc1cccc2ccccc12	100
COc1ccc(-c2cc(C(F)(F)F)n3ncc(C(=O)Nc4cccc(O)c4)c3n2)cc1	92
Cc1ccc(Oc2ncccc2NC(=O)CSc2ccccn2)c2c1CCC2	109
NC(=O)c1ccc2c(c1)S(=O)(=O)c1ccccc1C2=O	102
O=S1(=O)c2cccc3cccc(c23)N1Cc1cccc(Br)c1	100
O=C(c1sc2ccccc2c1Cl)N1CCN(C(=O)C2CCCO2)CC1 (stereo unspecified)	99
CC1CN(C(=O)c2cccc(Cl)c2)CCN1C(=O)c1cccc(Cl)c1 (stereo unspecified)	97
CCn1c(=S)ccc2ccccc21	100
Oc1ccccc1C1C=CCC1 (stereo unspecified)	100
Cc1cc(C(=O)O)c(C#N)c(N)n1	100
CC(C)CNc1ncnc2sc3c(c12)CCCC3	98
CC(NC(=O)C(c1ccccc1)c1ccccc1)C(=O)O (stereo unspecified)	100
CSC(=NC1CCCCC1)Nc1cc(-c2ccccc2)[nH]n1	102
O=C(O)CCC(=O)Nc1ccc(S(=O)(=O)Nc2nccs2)cc1	100
O=C(Nc1ccccc1)Nc1ccccc1C(=O)NCC1CC1	103
COc1ccc(S(=O)(=O)NC(CC(=O)O)C(C)C)cc1 (stereo unspecified)	110
O=C(O)C12C3CCC4C5C3C1C5(C(=O)O)C42 (stereo unspecified)	97
O=C(COc1ccccn1)N1CCN(c2ccccc2)CC1	98
N#Cc1cn(CC(=O)N2CCc3ccccc3C2)c2ccccc12	99
Nc1ccc(-c2nc3ccccc3o2)cc1	101
O=C1NCCN1CCNC(=S)Nc1ccc(OC(F)(F)F)cc1	100
N#CC1=C(N)OC2=C(C(=O)CCC2)C12C(=O)N(CC(N)=O)c1ccccc12 (stereo unspecified)	100

(continued)
SMILES	Vaccinia pol inh
Cc1ccc(S(=O)(=O)CCSC2=CC(=O)CC(C)(C)S2)cc1	97
O=C(O)c1ccc(N=Cc2cccnc2)cc1	100
NC(=O)c1ccc(OC2CSC2)cc1	98
CCOC(=O)c1ccc(NC(=O)C23CCC(C)(C(=O)C2)C3(C)C)cc1 (stereo unspecified)	94
CC(C)c1ccc(S(=O)(=O)/N=C2/C=C(Sc3ncn[nH]3)C(=O)c3ccccc32)cc1	88
c1cncc(-c2noc(-c3ccc4c(c3)OCO4)n2)c1	94
S=C(NCCN1CCOCC1)NC1CCCc2ccccc21 (stereo unspecified)	100
Cc1ccc(Cn2c(=O)n(-c3ccc(C)c(C)c3)c(=O)c3oc4ccccc4c32)cc1	110
CCC(=O)c1cc(Cl)cc(Cl)c1O	97
COc1cccc(CNc2nc3ccccc3n2CCN2CCOCC2)c1OC	104
O=C(CSc1nc2ccccc2o1)OCc1ccccc1	94
CCSc1nc2ccccc2s1	102

Screens as filed in PubChem BioAssay.
